PINK1 modulator – PINK1 expression modulation; PINK1 immunofluorescence, high-content cytometry, 24 h; Potency, µM (series often up to 76.6 µM), for inactives: top-dose activation (PINK1 increase), hits mostly activators; actives 0.2% (n = 410,000); active = well fitted activation curve with a large enough effect; inconclusive = small, poorly fitted or top-dose-only effect; inactive = flat fitted curve, though single readings scatter; cell line not stated here;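 further: potency means the concentration at half of the fitted maximal effect; % of control where 0% means no effect; nearly all actives have a fitted effect of over 65% in size; a mitochondrial uncoupler was the plate control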
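A stable cell line was treated with compounds at 5 concentrations for 24 hours, with CCCP as control. PINK1 levels and mitochondrial localization were measured by immunofluorescence with mitochondrial, cell and nuclear markers after fixation, read by laser-scanning cytometry.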
D2 potentiator – positive allosteric modulators of human D2 dopamine receptor; P14416; DiscoveRx D2 beta-arrestin cells, luminescence, 90 min; 100% = 57 uM dopamine signal; potentiation, % (concentration not given with the values); actives 0.23% (n = 360,000); active = potentiation of 50% or more; inconclusive = 30% to 50%; inactive = 30% or less;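 further: compound concentration not given in the record; tested on top of an EC20 dose of dopamine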
Target sequence (P14416 whole entry, looked up): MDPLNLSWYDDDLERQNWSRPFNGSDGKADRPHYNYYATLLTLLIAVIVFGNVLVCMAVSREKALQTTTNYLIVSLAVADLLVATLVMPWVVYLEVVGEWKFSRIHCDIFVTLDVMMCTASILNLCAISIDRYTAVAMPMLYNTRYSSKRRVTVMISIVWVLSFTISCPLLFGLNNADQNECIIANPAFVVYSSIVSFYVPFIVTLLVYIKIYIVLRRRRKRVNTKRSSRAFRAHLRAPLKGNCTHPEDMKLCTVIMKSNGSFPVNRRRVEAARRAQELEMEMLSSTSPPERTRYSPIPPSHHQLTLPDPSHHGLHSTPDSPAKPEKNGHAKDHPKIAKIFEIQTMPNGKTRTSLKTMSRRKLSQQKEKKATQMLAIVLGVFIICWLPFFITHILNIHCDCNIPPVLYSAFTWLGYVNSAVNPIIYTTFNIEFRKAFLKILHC
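PathHunter D2 cells, attached overnight at 37 deg C, received compound in DMSO plus dopamine at EC20 (50 nM final) for 90 min at 37 deg C. Beta-arrestin recruitment was read as luminescence after 1 h with detection reagent at ambient temperature.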
Six1-Eya2 blk – Six1/Eya2 interaction inhibition. Q15475+O00167. AlphaScreen GST-Six1/His-Eya2 binding, biochemical; hits give low values; control for the full effect not named in the record. activity change, % (no concentration beside the values). actives 0.56% (n = 360,000); in the data active = activity change below about -65%; inconclusive = about -30% to -65%; inactive = above about -30%; further: on the % scale 0 is the no-effect control and ±100 the full control effect; compound concentration not given in the record
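AlphaScreen luminescence read after one hour at 37 °C in darkness. Pin-transferred compounds met GST-Six1 and His-Eya2 protein (5X stock 250 nM/500 nM) plus glutathione donor and Ni-chelate acceptor beads (5X, 50 ug/mL).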
TRPML1 agonist – agonists of human TRPML1 channel | actives 0.12% (n = 410,000) | TRPML1-expressing cells, Ca2+ dye fluorescence, FDSS; host cell line not named in the record; reference of the full effect not given here | AID 624414 | Q9GZU1 | activation, % (no concentration beside the values); in the data active = activation above about 50%; inconclusive = about 30% to 50%; inactive = below about 30%; further: 0% is about no effect; the text of the record puts the active cut at 80%
Target sequence (Q9GZU1 whole entry, looked up): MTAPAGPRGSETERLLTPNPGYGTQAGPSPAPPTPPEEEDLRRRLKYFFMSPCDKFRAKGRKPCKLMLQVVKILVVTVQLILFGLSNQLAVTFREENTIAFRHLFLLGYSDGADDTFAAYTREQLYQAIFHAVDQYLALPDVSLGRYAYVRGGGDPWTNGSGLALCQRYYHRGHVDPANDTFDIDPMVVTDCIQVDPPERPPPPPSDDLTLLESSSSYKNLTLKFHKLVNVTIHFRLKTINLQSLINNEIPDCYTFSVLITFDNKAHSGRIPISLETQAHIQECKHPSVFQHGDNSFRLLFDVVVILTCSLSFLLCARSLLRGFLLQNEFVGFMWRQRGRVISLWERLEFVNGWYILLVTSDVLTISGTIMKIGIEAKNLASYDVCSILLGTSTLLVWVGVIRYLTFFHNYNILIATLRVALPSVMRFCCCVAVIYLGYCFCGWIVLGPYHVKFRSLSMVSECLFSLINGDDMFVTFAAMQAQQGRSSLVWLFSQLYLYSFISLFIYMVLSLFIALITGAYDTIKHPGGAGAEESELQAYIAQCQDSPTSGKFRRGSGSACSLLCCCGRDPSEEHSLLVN
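Tet-induced TRPML1-DL cells, 1,500 per well, cultured overnight, were loaded with a no-wash Ca2+ dye for 45–90 min. Calcium fluorescence was recorded on the FDSS for 110 s after compound addition, before the EC80 agonist (4 uM 54-4) was added.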
D2 agonist – activates the human D2 dopamine receptor; DiscoveRx PathHunter D2 beta-arrestin, luminescence, 90 min; 100% = 57 uM dopamine signal; activation, % (concentration not given with the values); actives 0.084% (n = 360,000); AID 624465; in the data active = activation above about 40%; inconclusive = about 15% to 40%; inactive = below about 15%; further: compound concentration not given in the record; the text of the record calls up to 30% inactive
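DiscoveRx PathHunter D2 beta-arrestin cells (2,100/well) attached overnight, then compound-stimulated 90 min at 37 C in HBSS/10 mM HEPES/0.1% Tween-20 buffer; beta-galactosidase complementation read by luminescence after 1 h at ambient temperature. Dopamine 57 uM final (EC100) as control.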
TRPML1 blocker – human mucolipin-1 channel inhibition. Q9GZU1. TRPML1-inducible cells, Ca2+ dye fluorescence, FDSS; hits give low values; inhibition of EC80 agonist-evoked calcium signal. activity change, negative = inhibition, % (no concentration beside the values). actives 0.02% (n = 390,000). AID 624415; in the data active means activity change below about -50%; inconclusive means about -30% to -50%; inactive means above about -30%;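 further: stimulus is agonist 54-4 at its EC80 concentration; on the % scale 0 is the no-effect control and ±100 the full control effect; compound concentration not given in the record; the text of the record puts the active cut at -80%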
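TRPML1-DL cells, Tet-induced overnight (~16 h, 37 °C) at 1,500 cells/well, were loaded with Ca8 no-wash dye plus quencher for 45-90 min at room temperature. Compounds were pinned during FDSS kinetic reading; agonist 54-4 at EC80 (4 uM final) then added.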
Active calls of the source: *; u = inconclusive; x = not tested or not shown; & = joins results of further samples; [ ] = another dose, or the depositor's remark.

Labels used below: A = PINK1 modulator; B = D2 potentiator; C = Six1-Eya2 blk; D = TRPML1 agonist; E = D2 agonist; F = TRPML1 blocker
O=C(NC(=O)N1CCCCCC1)c1ccc(Cl)cc1
  A: 0.3%	B: -5	C: -1	D: 1.2	E: -0.5	F: 2
O=C(C1CCN(S(=O)(=O)c2ccccc2)CC1)N1CCN(Cc2ccc3c(c2)OCO3)CC1
  A: -2.1%	B: -9	C: -1	D: -0.2	E: -2.6	F: 2
Cc1cccn2c(=O)c3cc(C(=O)N4CCOCC4)n(C)c3nc12
  A: 5.3%	B: -6	C: 1	D: 0.0	E: -3.0	F: -11
COc1ccc(OCC(=O)OCC(=O)Nc2ccc(S(=O)(=O)N3CCCCC3)cc2)cc1
  A: -0.3%	B: -3	C: -1	D: -0.8	E: 1.9	F: 9
Cc1ccc(C)n1-c1cc([N+](=O)[O-])ccc1-n1ccnc1
  A: -0.3%	B: 3	C: -5	D: 4.7	E: -1.7	F: 25
CCOc1cc(C#N)c(NC(=O)c2cccnc2)cc1OCC
  A: u	B: -26	C: -2	D: 1.1	E: -0.9	F: 3
O=C(Nc1ccccc1C(=O)OCc1nnc(-c2ccccc2)o1)c1ccco1
  A: -4.7%	B: -5	C: -2	D: 2.3	E: -3.2	F: -10
CCOc1ccc(Nc2ncnc(N)n2)cc1
  A: x	B: 10	C: 4	D: 0.0	E: 0.3	F: 3
COc1ccccc1/C=C1\SC(=S)N(CCC(=O)NC2=NCCS2)C1=O
  A: 0.6%	B: -8	C: -5	D: 0.3	E: 0.2	F: -10
COc1cccc2c1Oc1ncccc1N(C(=O)CCC(=O)NCCC(C)C)C2
  A: -0.6%	B: x	C: x	D: 2.7	E: x	F: 1
Cc1ccc(S(=O)(=O)N(CC(=O)O)Cc2ccccc2F)cc1
  A: u	B: 12	C: 6	D: -0.1	E: 2.7	F: -12
Cc1cc(OCC(=O)O/N=C(\N)c2ccccc2)ccc1Br
  A: 5.0%	B: 0	C: 21	D: -0.2	E: 7.3	F: -3
NC(=O)CCn1c(C(=O)c2cc(Cl)c(N)c(Cl)c2)c2ccccc2[n+]1[O-]
  A: 4.2%	B: -2	C: 7	D: 1.2	E: -2.1	F: 38
O=S(=O)(NCC1CCCO1)c1cccc2nsnc12 (stereo not given)
  A: 1.3%	B: -1	C: 4	D: 0.1	E: -3.6	F: -6
CC(NC(=O)c1ccccc1NC(=O)CN1CCc2ccccc2C1)c1ccccc1 (stereo not given)
  A: 0.6%	B: 5	C: -7	D: 3.1	E: 0.4	F: 6

Profiles as entered above. Order of screens: PINK1 modulator	D2 potentiator	Six1-Eya2 blk	TRPML1 agonist	D2 agonist	TRPML1 blocker
Shown for `O=C(C1CCN(S(=O)(=O)c2ccccc2)CC1)N1CCN(Cc2ccc3c(c2)OCO3)CC1` : -2.1%	-9	-1	-0.2	-2.6	2
Shown for `O=C(NC(=O)N1CCCCCC1)c1ccc(Cl)cc1` : 0.3%	-5	-1	1.2	-0.5	2
Shown for `COc1cccc2c1Oc1ncccc1N(C(=O)CCC(=O)NCCC(C)C)C2` : -0.6%	x	x	2.7	x	1
Shown for `CCOc1ccc(Nc2ncnc(N)n2)cc1` : x	10	4	0.0	0.3	3
Shown for `Cc1ccc(C)n1-c1cc([N+](=O)[O-])ccc1-n1ccnc1` : -0.3%	3	-5	4.7	-1.7	25

The listing continues.
Labels used below: A = PINK1 modulator; B = D2 potentiator; C = Six1-Eya2 blk; D = TRPML1 agonist; E = D2 agonist; F = TRPML1 blocker
CCC(C)NC(=O)c1ccc2nc(Cc3ccccc3)oc2c1 (stereo not given)
  A: 0.5%	B: x	C: x	D: 1.8	E: x	F: 19
CC(C)NC(=S)N/N=C1\CCCc2ccccc21
  A: 3.1%	B: -7	C: -10	D: 2.8	E: 8.8	F: 34
Cn1cnnc1SCC(=O)Nc1ccc(C#N)cc1
  A: -1.9%	B: x	C: x	D: 0.7	E: x	F: -12
C/C(=N\NC(=O)c1cc2c(s1)CCC(C)C2)c1ccncc1 (stereo not given)
  A: 2.3%	B: -9	C: 5	D: 1.2	E: -0.3	F: -5
O=C(COc1ccccc1)Nc1c(C(=O)N2CCN(c3ccc(F)cc3)CC2)oc2ccccc12
  A: -3.0%	B: x	C: x	D: 0.8	E: x	F: -17
CCOC(=O)Cn1c(=O)oc2cc(S(=O)(=O)Nc3cc(OCC)ccc3OCC)ccc21
  A: -1.2%[38.3 µM]	B: 3	C: 2	D: 4.0	E: 4.3	F: 17
c1ccc2c(-c3cnc4cccnn34)cncc2c1
  A: -0.7%	B: 0	C: 1	D: -0.3	E: -4.5	F: x
O=c1c2cccnc2n(Cc2ccc(Cl)cc2)c(=O)n1Cc1ccc(F)cc1
  A: -0.8%	B: x	C: x	D: -0.4	E: x	F: -2
O=C(Oc1cc(=O)n2ccccc2n1)c1ccccc1
  A: -0.9%	B: 4	C: -5	D: -1.1	E: 12	F: -4
O=C(NNC(=S)Nc1ccccc1Cl)c1ccccc1Cl
  A: 3.8%	B: -35	C: -3	D: 0.0	E: -13	F: 12
O=C1OCc2ccc(NC(=O)C3CCCCC3)cc21
  A: u	B: -4	C: 1	D: 0.3	E: -2.0	F: 9
Cc1ccc(CCc2nnc(SCC(=O)Nc3ccccc3Cl)n2-c2ccccc2)o1
  A: -0.8%	B: -12	C: -20	D: 4.0	E: 0.4	F: 5
C=CCN(c1ccccc1)S(=O)(=O)c1cccc(C(=O)N2CC(C)CC(C)C2)c1 (stereo not given)
  A: 5.4%	B: -33	C: 1	D: 1.4	E: -2.8	F: 47
CC1C(O)=C(c2nc3ccccc3[nH]2)C(=N)N1c1ccccc1 (stereo not given)
  A: u	B: -1	C: -1	D: 0.5	E: -0.1	F: -3
CC(C)NC(=O)CSc1nc(Cc2ccccc2)nc2ccccc12
  A: 1.6%	B: -5	C: 4	D: 1.3	E: 0.6	F: 4
COC(=O)c1[nH]c2cc(OC)ccc2c1NC(=O)CN1CCC(C(N)=O)(N2CCCCC2)CC1
  A: 4.2%	B: -4	C: -9	D: -0.3	E: 0.7	F: 13
Cc1[nH]nc(-c2ccc(OCc3cnn(-c4ccccc4)c3)cc2O)c1Oc1ccc(F)cc1
  A: 2.9%	B: -10	C: -10	D: 0.9	E: 3.9	F: 2
O=C(CCC(=O)N1CCSc2ccccc21)NCc1cccc(Br)c1
  A: 0.3%	B: -3	C: -1	D: 0.0	E: -0.3	F: 22
Cn1ncc(C#N)c1NC(=O)C1CC(c2ccc(Cl)cc2)=NO1 (stereo not given)
  A: -1.8%	B: -11	C: -1	D: -0.8	E: -1.7	F: 3
C/C(=N\Nc1cc(Cl)nc(C)n1)c1ccc(Cl)c(Cl)c1
  A: u	B: -1	C: 4	D: 0.8	E: -2.9	F: 4
COc1ccc(NC(=O)CCc2ccccc2)cc1NC(=O)c1ccco1
  A: 1.1%[38.3 µM]	B: -9	C: -3	D: 0.2	E: 1.3	F: -9
CC1=CC(C)[C@H](/C=N/n2c(=O)[nH]c3c([nH]c4ccc(Br)cc43)c2=O)C(C)C1 (stereo not given in full)
  A: -2.0%	B: 6	C: 2	D: -0.4	E: 0.7	F: -19
O=C(CC1SC(=O)N(c2ccccc2)C1=O)Nc1ccc(Br)cc1 (stereo not given)
  A: 12%	B: -16	C: 3	D: -0.4	E: -7.2	F: 8
CCOCCCNC(=O)c1c(NC(=O)c2nc(SC)ncc2Cl)sc2c1CCCC2
  A: 3.4%&1.0%	B: x	C: x	D: -0.1&-0.4	E: x	F: 29
CC(OC(=O)c1ccc([N+](=O)[O-])s1)C(=O)NC1CCCCC1C (stereo not given)
  A: 16%	B: 0	C: 4	D: -0.5	E: -1.7	F: -6
COc1ccccc1NC(=O)c1oc2ccccc2c1NC(=O)Cc1cccs1
  A: 12%	B: x	C: x	D: 0.1	E: x	F: -3
COc1ccc(-n2nc(C(=O)NCC(=O)N3CCN(Cc4ccc5c(c4)OCO5)CC3)c3ccccc3c2=O)cc1OC
  A: -0.9%	B: -2	C: -9	D: 0.8	E: 3.4	F: 5
O=C(COC(=O)C1=COCCO1)Nc1cc(S(=O)(=O)N2CCCCC2)ccc1Cl
  A: -0.9%	B: -4	C: -20	D: 0.2	E: -0.3	F: -12
Cc1ccc2cccc(OCC(=O)NCCC3=CCCCC3)c2n1
  A: -2.3%	B: -16	C: -1	D: 1.1	E: -2.0	F: -5
O=C(COC(=O)c1ccc(Cl)nc1)NC(=O)c1ccc(OC(F)F)cc1
  A: -3.0%	B: 12	C: 0	D: 0.0	E: 0.6	F: -4
Cc1cc(Cl)cc(Br)c1OCCCNCC(C)O (stereo not given)
  A: -0.5%	B: -20	C: -2	D: -0.2	E: -3.7	F: -20
CCOC(=O)Cc1nnc(NC(=O)C(CC)Sc2nc(C)cc(C)n2)s1 (stereo not given)
  A: 0.7%	B: -3	C: -9	D: -0.4	E: -5.8	F: 19
CCCOc1ccc(N2C(=O)CC(NCc3ccc(S(N)(=O)=O)cc3)C2=O)cc1 (stereo not given)
  A: 1.5%	B: -8	C: -1	D: 0.2	E: -0.4	F: 28
Cc1ccc(-c2csc(N/N=C/C=C/c3ccccc3)n2)cc1
  A: 3.6%[38.3 µM]	B: 9	C: -1	D: -0.3	E: -0.8	F: -2
COc1ccccc1N1CCN(/N=C/c2cc([N+](=O)[O-])ccc2Cl)CC1
  A: 4.3%	B: 3	C: u	D: 0.3	E: -3.5	F: 13
COc1ccc(CN(C(=O)c2ccc(-c3ccccc3)[nH]2)C(C(=O)NCC2CCCO2)c2ccc(C)o2)cc1 (stereo not given)
  A: 0.2%	B: -21	C: u	D: 1.1	E: -2.5	F: 2
CC1CCN=C(N)S1 (stereo not given)
  A: 0.2%	B: -6	C: 4	D: -0.1	E: -5.1	F: 12
CC(C)NC(=O)C1CC=CCC1C(=O)O (stereo not given)
  A: -0.1%	B: -11	C: 29	D: 0.3	E: -0.8	F: 1
Cc1ccc(S(=O)(=O)NCC(=O)N(CC(=O)NCC2CCCO2)Cc2ccco2)cc1 (stereo not given)
  A: 0.7%	B: -1	C: 6	D: -0.2	E: 0.7	F: 3
CCN(CC)S(=O)(=O)c1ccc(N/N=C(\C)c2ccncc2)c([N+](=O)[O-])c1
  A: 13%	B: -1	C: 0	D: 1.3	E: 2.2	F: 3
NS(=O)(=O)c1cc2c(cc1Cl)NC(c1ccccc1OCC(=O)O)NS2(=O)=O (stereo not given)
  A: 1.6%	B: -2	C: 14	D: -0.3	E: 4.7	F: 5
Cc1cccc(N2CCN(C(=O)c3ccc(NS(=O)(=O)c4ccc5[nH]c(=O)[nH]c5c4)cc3)CC2)c1C
  A: 4.0%	B: 1	C: -10	D: 0.1	E: -2.5	F: 8
Cc1cc(N2C(=O)C3CC=CCC3C2=O)no1 (stereo not given)
  A: 0.2%	B: -2	C: 4	D: 0.0	E: -1.5	F: -5

Assay outcomes deposited in PubChem by National Center for Advancing Translational Sciences (NCATS).
